From PubChem BioAssay
TRPV1 potentiator: potentiators of human vanilloid receptor 1 (TRPV1); TRPV1-expressing cells, Fluo-8 calcium influx, capsaicin EC20 potentiation; host cell line not named in the record; control for the full effect not named in the record; potentiation, % at 8.33 µM; hit rate 0.02% among 320,000; Q8NER1; AID 540277; active means potentiation above 80%; inconclusive means 30% to 80%; inactive means below 30%; also: 0% is about no effect
Target sequence (Q8NER1 whole entry, looked up): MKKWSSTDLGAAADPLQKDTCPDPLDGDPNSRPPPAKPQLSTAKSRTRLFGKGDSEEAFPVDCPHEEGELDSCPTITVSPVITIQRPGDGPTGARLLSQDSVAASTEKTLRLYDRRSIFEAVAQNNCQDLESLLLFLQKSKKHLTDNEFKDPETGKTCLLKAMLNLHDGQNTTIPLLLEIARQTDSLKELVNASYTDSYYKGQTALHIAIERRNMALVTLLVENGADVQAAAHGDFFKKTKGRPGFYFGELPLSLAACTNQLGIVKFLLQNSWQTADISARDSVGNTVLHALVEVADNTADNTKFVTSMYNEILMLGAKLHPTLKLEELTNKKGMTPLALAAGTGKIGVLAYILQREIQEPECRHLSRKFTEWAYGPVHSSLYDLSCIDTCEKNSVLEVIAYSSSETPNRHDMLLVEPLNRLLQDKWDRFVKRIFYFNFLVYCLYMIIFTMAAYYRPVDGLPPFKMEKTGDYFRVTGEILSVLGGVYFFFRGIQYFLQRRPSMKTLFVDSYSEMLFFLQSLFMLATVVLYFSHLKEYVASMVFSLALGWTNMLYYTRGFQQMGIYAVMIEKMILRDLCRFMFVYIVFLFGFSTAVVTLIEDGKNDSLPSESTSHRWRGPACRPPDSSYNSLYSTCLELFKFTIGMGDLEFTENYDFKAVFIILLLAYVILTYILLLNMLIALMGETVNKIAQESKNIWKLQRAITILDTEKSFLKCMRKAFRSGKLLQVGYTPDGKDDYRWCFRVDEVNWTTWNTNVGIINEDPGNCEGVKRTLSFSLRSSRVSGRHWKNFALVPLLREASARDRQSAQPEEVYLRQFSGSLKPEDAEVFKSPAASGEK
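Fluo-8 calcium influx in TRPV1-expressing cells, kinetic read (ex 480/em 520 nm). Compound added and read 3 min for agonist activity, followed by capsaicin at EC20 final and 2 min further read for enhancement.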
CtBP-E1A inh: CtBP/E1A binding inhibition. AlphaScreen GST-E1A/His-CtBP binding, 1536-well; active compounds read low; control for the full effect not named in the record. activity change, % (concentration not given with the values). hit rate 0.49% among 340,000; in the data active means activity change below about -65%; inconclusive means about -30% to -65%; inactive means above about -30%; also: % is scaled to controls: 0 for no effect and ±100 for the full control effect
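Protein mix (5X: 125 nM each GST-E1A, His-CtBP) was incubated with pinned compound 2 h at 37 deg C in dark, in 50 mM Tris pH 8.0 buffer with 300 mM NaCl. Glutathione donor and nickel acceptor beads followed; AlphaScreen signal read after 1 h.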
ClpP mod: qHTS Assay for Activators of ClpP; hit rate 1.9% among 340,000; AID 651965, 2013; purified B. subtilis ClpP, FRET peptide cleavage, 20 min; ATP-dependent Clp protease proteolytic subunit (Bacillus subtilis (strain 168)), P80244; Potency, µM (doses to about 57.5 µM), for the others: top-dose activity change, negative = active; active = well fitted falling curve with a large enough effect; inconclusive = small, poorly fitted or top-dose-only effect; inactive = no such curve, though single readings can be large or run the other way; also: potency is read from the fitted curve at half-maximal effect; the source files actives as falling curves though it sought activators and does not explain the sign; nearly all actives have a fitted effect of over 65% in size; many hits overshoot -100%
Target sequence (P80244 whole entry, looked up): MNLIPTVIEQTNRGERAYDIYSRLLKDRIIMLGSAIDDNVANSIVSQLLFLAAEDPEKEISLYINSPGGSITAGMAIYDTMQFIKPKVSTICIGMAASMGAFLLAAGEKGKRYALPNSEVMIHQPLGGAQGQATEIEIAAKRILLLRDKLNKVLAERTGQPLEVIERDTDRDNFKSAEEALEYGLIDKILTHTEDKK
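Purified B. subtilis ClpP, 10 microg/mL final in Tris/HCl pH8 with KCl, BSA, glycerol and Tween-20, cleaved an Abz/nitrotyrosine-quenched decapeptide. Fluorescence (ex 320, em 430) was read at 0 and 20 min at room temperature. Delta was normalized to 5.8 microM ADEP and DMSO/no-enzyme controls.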
gsp agonist: gsp mutant agonism; hit rate 0.13% among 340,000; gsp mutant cells, cAMP HTRF, 30 min; control for the full effect not named in the record; Potency, µM (titrated, usually from 76.9 µM), inactives show at the top dose activation (cAMP increase), hits mostly activators; AID 624287; active = well fitted activation curve with a large enough effect; inconclusive = small, poorly fitted or top-dose-only effect, or another doubt; inactive = no such curve, though single readings can be large or run the other way; cell line not stated here;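 also: phosphodiesterase inhibitor Ro 20-1724 added with compounds to block cAMP breakdown; potency is read from the fitted curve at half-maximal effect; nearly all actives have a fitted effect of over 60% in size; about a fifth of the inactives were tested at one dose only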
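Cells stably selected in G418 were plated at 2000/well, grown 16-24 hr, then given compounds in DMSO with the PDE inhibitor […] (300 uM solution added) for 30 min at 37C; cAMP was read by HTRF.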
Sfp inh: Sfp phosphopantetheinyl transferase inhibition; hit rate 3.5% among 310,000; AID 1490; Potency, µM, for the others: max response, negative = inhibition, actives largely listed as inhibitors; Biochemical Sfp PPTase activity, qHTS; active = well fitted inhibition curve with a large enough effect; inconclusive = small, poorly fitted or top-dose-only effect, or another doubt; inactive = no such curve, though single readings can be large or run the other way;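 also: the enzyme is Sfp with the accession as filed and its product quenches rhodamine fluorescence; potency is read from the fitted curve at half-maximal effect; 0% = enzyme reaction without inhibitor and -100% = no enzyme wells; top concentration of the series not given in the record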
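Step 1, compound plus 15 nM Sfp-PPTase, 15 min, room temperature. Step 2, add rhodamine-CoA (5 uM) and BHQ-2-YbbR (12.5 uM). Step 3, read 525/598 nm fluorescence at 0 and 30 min.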
gsp antag: antagonizes gsp, the McCune-Albright syndrome mutation | gsp-mutant cells, cAMP HTRF, 30 min; control for the full effect not named in the record | Potency, µM (highest dose often 76.9 µM), without a hit: top-dose activity change, negative = inhibition, actives largely listed as inhibitors | hit rate 0.4% among 340,000; active = falling curve of any shape with a large fitted effect; inconclusive = falling curve, mostly with a smaller effect; inactive = flat or rising curve; cell line not stated here;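 also: intracellular cAMP measured with PDE inhibitor Ro 20-1724 present during compound exposure; potency is read from the fitted curve at half-maximal effect; % is scaled to controls: 0 for no effect and ±100 for the full control effect; nearly all actives have a fitted effect of over 65% in size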
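HTRF cAMP measurement after 30 min RT detection following 30 min, 37C compound treatment alongside […] (added as 300 uM solution) in G418-selected cells seeded at 2000/well and grown 16–24 h.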
Menin MLL FP FL: menin-MLL binding inhibition, fluorescein peptide; Fluorescence polarization, fluorescein-MLL peptide displacement from menin; AID 1766; 290,000 tested, under 10 active; FP activity change, % at 61.4 µM; inconclusive = falling polarisation curve, or a change in total fluorescence; inactive = total fluorescence flat and polarisation flat or rising; no compound was filed as active; the % refers to the polarisation; negative = inhibition;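 also: % of control where 0% means no effect; inhibitors lower the polarisation; unlabelled MLL peptide was the positive control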
* marks the source's active call; other numbers are inactive results; [ ] = another dose, or the depositor's remark.

Screening O=C(O)c1ccc(/C=N/N2CCN(c3ccccc3)CC2)cc1 returned TRPV1 potentiator 3, ClpP mod -0.7%, gsp agonist -3%, Sfp inh 14%, gsp antag -9% and Menin MLL FP FL -2.1.
O=C(Cc1ccc(NC(=O)C2CCN(C(=O)c3ccccc3)CC2)cc1)Nc1cccc(C(=O)N2CCCC2)c1 was read as CtBP-E1A inh 5, ClpP mod -0.5% and gsp antag -3%.
Screening C=CCc1ccc2oc(C(=O)OCC)cc(=O)c2c1O returned TRPV1 potentiator 2, CtBP-E1A inh -11, ClpP mod 1.5%, gsp agonist -5%[15.4 µM], Sfp inh 9%, gsp antag 0% and Menin MLL FP FL 0.3.
Screening CCOC(=O)Nc1cc(OCC)c(NC(=O)C2CC2)cc1OCC returned TRPV1 potentiator -11, CtBP-E1A inh 17, ClpP mod 1.0%, gsp agonist -29%, Sfp inh 13%, gsp antag -3% and Menin MLL FP FL 0.2.
`COc1ccc(-c2nonc2NC(=O)c2oc3ccc(F)cc3c2C)cc1OC` gave TRPV1 potentiator 8, CtBP-E1A inh 1, ClpP mod -5.6%, gsp agonist -12%, Sfp inh 7%, gsp antag -12% and Menin MLL FP FL 0.5.
For CCOc1ccccc1/C=C/c1nc2ccccc2[nH]c1=O the results were TRPV1 potentiator -18, CtBP-E1A inh 1, gsp agonist -2%, Sfp inh -2%, gsp antag -8% and Menin MLL FP FL 0.8.
For O=C(NCc1ccc2c(c1)OCO2)c1cc2c(s1)CS(=O)(=O)C2 the results were TRPV1 potentiator -17, CtBP-E1A inh 0, ClpP mod -0.6%, gsp agonist -43%[inhibitor], Sfp inh -3%, gsp antag 8% and Menin MLL FP FL 1.2.
For CSc1ccc(S(=O)(=O)NC(C)c2ccccc2)cc1 (centres undefined) the results were TRPV1 potentiator 2, CtBP-E1A inh -19, gsp agonist -16%, Sfp inh 14%, gsp antag 3% and Menin MLL FP FL -0.5.
Screening Cc1ccc(C(=O)NCCCN2CCN(CCCNC(=O)c3ccc(C)cc3)CC2)cc1 returned CtBP-E1A inh 1, ClpP mod 0.9%, gsp agonist 25% and gsp antag 15%.
For Cc1cc(NC(=O)c2ccc(Cn3nc(C)c(Br)c3C)o2)no1 the results were TRPV1 potentiator 5, CtBP-E1A inh -29, ClpP mod -1.9%, gsp agonist -25%, Sfp inh 10%, gsp antag 5% and Menin MLL FP FL -2.2.
For COC(=O)NC1CC2C=CC1C1C=CC21 (centres undefined) the results were CtBP-E1A inh 2, ClpP mod -2.5% and gsp agonist -15%.
`O=C(O)CCCNC(=O)Cc1ccccc1` gave TRPV1 potentiator -7, CtBP-E1A inh 5, ClpP mod -0.2%, gsp agonist inconclusive, Sfp inh 11%, gsp antag 17% and Menin MLL FP FL 2.4.
Cc1nc(CS(=O)(=O)c2ccccc2)cc(N2CCOCC2)n1 was read as TRPV1 potentiator 21, CtBP-E1A inh 2, ClpP mod 1.9%, gsp agonist 7%, Sfp inh 3%, gsp antag -3% and Menin MLL FP FL 1.9.
Screening C#CC(CC)(CC)NC(=O)c1ccc(Br)s1 returned TRPV1 potentiator -10, CtBP-E1A inh 12, gsp agonist inconclusive, Sfp inh 16%, gsp antag -14% and Menin MLL FP FL 4.6.
For O=C(COC(=O)CCCOc1ccc(Cl)cc1Cl)Nc1cccc(Cl)c1 the results were TRPV1 potentiator 3, CtBP-E1A inh 44, ClpP mod -1.3%, gsp agonist -10%, Sfp inh 2%, gsp antag -15% and Menin MLL FP FL 4.0.
C/C(Nc1cccc(F)c1)=C(/C#N)C(N)=O was read as TRPV1 potentiator -16, CtBP-E1A inh 8, ClpP mod 1.0%, gsp agonist -4%, Sfp inh 20%, gsp antag -1% and Menin MLL FP FL -1.5.
`O=C(c1ccccc1)N1CCN(C2CC3CCC2C3)CC1` (centres undefined) gave TRPV1 potentiator -5, CtBP-E1A inh -4, ClpP mod -1.7%, gsp agonist -1%, Sfp inh -21%, gsp antag 0% and Menin MLL FP FL -0.2.
`O=CC(O)C1OC(=O)C(O)C1O` (centres undefined) gave CtBP-E1A inh -15, ClpP mod -1.8% and gsp antag 10%.
`COc1ccc2cc(-c3[nH]ncc3CN3C[C@@H]4CCC[C@H]3C4)ccc2c1` gave TRPV1 potentiator 1, CtBP-E1A inh -5, gsp agonist 7%, Sfp inh 11%, gsp antag 4% and Menin MLL FP FL 1.3.
For CC(Sc1nc(NC(C)(C)C)nc(N(C)C)n1)C(=O)Nc1ccccc1 (centres undefined) the results were TRPV1 potentiator -25, CtBP-E1A inh -1, gsp agonist 24%[15.4 µM], Sfp inh 2%, gsp antag -31% and Menin MLL FP FL -4.7.
`CCN(C(=O)COC(=O)CNC(=O)C1CCCCC1)c1ccccc1` gave TRPV1 potentiator -1, CtBP-E1A inh -6, ClpP mod -1.8%, gsp agonist 9% and gsp antag -1%.
For CCc1nnc(SCC(=O)Nc2ccc(F)cc2)o1 the results were TRPV1 potentiator -47, CtBP-E1A inh -1, ClpP mod 0.8%, gsp agonist inconclusive, Sfp inh 9% and gsp antag 21%.
Cc1nc2cc(N=NC3=C(O)CCCC3=O)ccc2s1 was read as TRPV1 potentiator 8, CtBP-E1A inh -7, gsp agonist -3%[15.4 µM], Sfp inh -9%, gsp antag -27% and Menin MLL FP FL 3.4.
NC(=O)[C@@H]1CC2(CC(c3cccc(NC(=O)[C@@H]4CCC(=O)N4)c3)=NO2)CN1C(=O)Cc1ccc([N+](=O)[O-])cc1 (some centres undefined) was read as TRPV1 potentiator inconclusive, CtBP-E1A inh -6, ClpP mod -3.1%, Sfp inh 2%, gsp antag 7% and Menin MLL FP FL 1.0.
For COc1ccc(C)cc1S(=O)(=O)Nc1ccc2c(c1)OCO2 the results were TRPV1 potentiator -3, gsp agonist 12%[15.4 µM], Sfp inh 9%, gsp antag -7% and Menin MLL FP FL 1.4.
`COc1ccccc1N1CCN(C(c2ccccc2)c2nnnn2CCc2ccccc2)CC1` (centres undefined) gave TRPV1 potentiator -2, CtBP-E1A inh -13, ClpP mod -2.3%, gsp agonist -14%, Sfp inh -7%, gsp antag -8% and Menin MLL FP FL -1.4.
`Cc1ccc(N(CC(=O)NCc2ccc(F)cc2)S(=O)(=O)c2cccs2)cc1` gave TRPV1 potentiator -11, CtBP-E1A inh 3, ClpP mod 0.0%, gsp agonist -39%[inhibitor], Sfp inh 1%, gsp antag 3% and Menin MLL FP FL -0.7.
`CCOC(=O)C1CCN(CCC(=O)Nc2ccc(C)cc2)CC1` gave TRPV1 potentiator -8, CtBP-E1A inh 17, ClpP mod 1.6%, gsp agonist -1%, Sfp inh 17%, gsp antag 14% and Menin MLL FP FL -5.8.
CCn1c(=O)c([N+](=O)[O-])c(N2CCN(Cc3ccc4c(c3)OCO4)CC2)c2ccccc21 was read as TRPV1 potentiator -1, CtBP-E1A inh -5, ClpP mod -3.7%, gsp agonist -16%[15.4 µM], Sfp inh 8%, gsp antag -25% and Menin MLL FP FL -1.2.
Screening O=C(NCCc1ccccc1)C1CCN(c2ncccn2)CC1 returned TRPV1 potentiator 10, CtBP-E1A inh 0, gsp agonist -25%, Sfp inh -1%, gsp antag 8% and Menin MLL FP FL -1.5.
O=C(NCC(c1cccs1)N1CCOCC1)c1cc(S(=O)(=O)N2CCOCC2)c(Cl)cc1Cl (centres undefined) was read as TRPV1 potentiator 27, CtBP-E1A inh -2, ClpP mod 1.0%, gsp agonist 5% and gsp antag 13%.
Screening Cc1cc(C)c(O)c(C2(O)C(=O)c3ccccc3C2=O)c1 returned TRPV1 potentiator 12, CtBP-E1A inh -4, gsp agonist -5%[15.4 µM], Sfp inh 14%, gsp antag -8% and Menin MLL FP FL -0.2.
CC1CC(C)CN(C(=O)C(C)N(C)CC(=O)Nc2ccc(F)cc2)C1 (centres undefined) was read as TRPV1 potentiator -20, CtBP-E1A inh -2, ClpP mod 1.3%, gsp agonist 6% and gsp antag 13%.
For O=C(c1noc2c1CCCCC2)N1CCN(C(c2ccccc2)c2ccccc2)CC1 the results were CtBP-E1A inh 9, ClpP mod -0.1%, gsp agonist -14% and gsp antag 4%.
For COc1cccc(C(=O)CSc2nccn2C)c1 the results were TRPV1 potentiator -33, CtBP-E1A inh -1, gsp agonist -21%, Sfp inh 56µM*, gsp antag 9% and Menin MLL FP FL -1.0.
`CC(=O)Nc1ccc(S(=O)(=O)N2CCN=C2C)cc1` gave TRPV1 potentiator inconclusive, CtBP-E1A inh -1, ClpP mod -0.5%, gsp agonist 23%, Sfp inh 17%, gsp antag 16% and Menin MLL FP FL 0.9.
`COc1cc(/C=N/NC(=O)CNc2n[nH]c(=O)[nH]c2=O)ccc1O` gave TRPV1 potentiator 13, CtBP-E1A inh -11, ClpP mod -1.1%, gsp agonist 19%, Sfp inh 8%, gsp antag 2% and Menin MLL FP FL 6.9.
CCCN(Cc1ccccc1)C(=S)Nc1cccc(C(F)(F)F)c1 was read as TRPV1 potentiator -11, ClpP mod 0.0%, gsp agonist inconclusive, Sfp inh 14%, gsp antag -9% and Menin MLL FP FL 2.1.
COc1ccc(S(=O)(=O)NCCc2ccc(F)cc2)cc1 was read as TRPV1 potentiator -11, CtBP-E1A inh -4, ClpP mod -2.0%, gsp agonist 22%, Sfp inh 7%, gsp antag -3% and Menin MLL FP FL -1.0.
Cc1nc(-c2nnc(SCC(=O)Nc3cc(Cl)cc(Cl)c3)n2C)cs1 was read as TRPV1 potentiator 14, CtBP-E1A inh 5, gsp agonist 10%[15.4 µM], Sfp inh 22%, gsp antag -4% and Menin MLL FP FL -1.1.
Screening c1ccc(-n2nnnc2SCc2ccccn2)cc1 returned TRPV1 potentiator 4, CtBP-E1A inh 7, ClpP mod 1.3%, gsp agonist -3%, Sfp inh 13%, gsp antag 12% and Menin MLL FP FL -0.4.
`CC(=NNC(=O)CCC(=O)Nc1ccccc1Cl)c1ccco1` gave CtBP-E1A inh 3, gsp agonist 8% and gsp antag 6%.
